# RecA intein inh – blocks M. tuberculosis RecA intein splicing | 290,000 tested, 0.75% active | cell-free RecA intein splicing, fluorescence | inhibition, %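 (about 9 µM by stock and volumes)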 | P9WHJ3; in the data active = inhibition above about 30%; inconclusive = no clear call, values can overlap the other calls;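 also: 0% = vehicle wells and 100% = reference inhibitor control wells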
# Target sequence (P9WHJ3 whole entry, looked up): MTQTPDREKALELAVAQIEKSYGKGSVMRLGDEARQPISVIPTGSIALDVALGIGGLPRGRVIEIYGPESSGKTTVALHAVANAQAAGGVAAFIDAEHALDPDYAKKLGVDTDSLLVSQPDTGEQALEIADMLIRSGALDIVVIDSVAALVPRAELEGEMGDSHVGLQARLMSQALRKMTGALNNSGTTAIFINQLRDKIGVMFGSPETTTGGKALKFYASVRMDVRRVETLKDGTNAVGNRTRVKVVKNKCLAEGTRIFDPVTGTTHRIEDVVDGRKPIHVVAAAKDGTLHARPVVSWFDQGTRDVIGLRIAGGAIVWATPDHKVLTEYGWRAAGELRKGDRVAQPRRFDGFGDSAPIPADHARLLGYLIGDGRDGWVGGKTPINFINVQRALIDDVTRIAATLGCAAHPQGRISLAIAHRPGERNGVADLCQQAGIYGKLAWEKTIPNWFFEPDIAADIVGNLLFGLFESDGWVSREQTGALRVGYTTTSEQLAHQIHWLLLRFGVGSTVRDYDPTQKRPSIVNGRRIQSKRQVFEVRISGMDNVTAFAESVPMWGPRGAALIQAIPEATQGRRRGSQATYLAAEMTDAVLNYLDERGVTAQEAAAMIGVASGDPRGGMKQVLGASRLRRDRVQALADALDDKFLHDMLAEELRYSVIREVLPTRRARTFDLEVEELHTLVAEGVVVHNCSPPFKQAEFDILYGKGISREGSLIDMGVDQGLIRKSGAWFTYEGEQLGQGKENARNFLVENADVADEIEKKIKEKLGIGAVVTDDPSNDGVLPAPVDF
# Mtb bLac sens – beta-lactam sensitization of Mtb H37Rv. AID 434955. M. tuberculosis H37Rv growth with meropenem, percent inhibition; hits of this screen are not shown here. 330,000 tested, 0.27% active. inhibition, % at 25 µM;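 active = about 74% or more and at least 40 points above the plate without the antibiotic, then above 30% in a dose series; inconclusive = first-round hits that could not be retested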;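 also: growth measured after seven days incubation then overnight dye step; 0% = bacteria only wells and 100% = bacteria with antibiotic; twin plates without the antibiotic show which effects depend on it; some results filed as inactive read as strong as hits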
# Arbovirus anti – antivirals against arbovirus infection. 200,000 tested, 0.37% active. AID 1251. arbovirus infection cell-based antiviral screen. inhibition, % at 10 µM;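 active = inhibition from about 30%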;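 also: bluetongue infection of BSR cells; cell survival read as ATP light after 72 h; 0% = infected wells without compound and 100% = uninfected wells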
# Mtb growth – M. tuberculosis H37Rv growth inhibitors, H37Rv strain (AID 1626); M. tuberculosis H37Rv growth inhibition; higher % means a stronger effect; one-dose inhibition, % at 10 µM; IC50 in µM for titrated hits; 220,000 tested, 0.95% active;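 active = confirmed in a dose series; inconclusive = inhibition above 80% but not taken into the dose series; inactive = below 80% or under 30% at every dose of the series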;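 also: bacteria incubated seven days before Alamar blue readout; 0% = bacteria only wells and 100% = bacteria with antibiotic wells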
# YopH inh – YopH (Yersinia) phosphatase inhibition | fluorescence Ex485/Em525 | inhibition, %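 (about 10 µM by stock and volumes)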 | 140,000 tested, 0.16% active;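 active = inhibition of 50% or more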;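 also: controls were vehicle for no effect and minimum signal wells for full effect; inactives centre near -20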
# Arbovirus anti repeat – second read-out of Arbovirus anti, no call of its own (marks repeat the call); inhibition, %; measured here: 10K subset replicate screen; many hits read low in the repeat;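 first of two repeat runs on a subset; 0% = infected and 100% = uninfected wells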
# * marks the source's active call; other numbers are inactive results; ? = inconclusive; nt = no result given.
SMILES,RecA intein inh,Mtb bLac sens,Arbovirus anti,Mtb growth,YopH inh,others
COc1cccc(OCc2cc(/C=N/NC(=O)c3nc(Cl)c(Cl)c(N)c3Cl)ccc2OC)c1,-0.8,-5,-3,6%,-2,
NC(=O)CC(NC(=O)Cc1ccc(Br)cc1)c1ccc(N2CCN(c3ccc(F)cc3)CC2)c([N+](=O)[O-])c1 (stereo not given),0.4,-14,nt,6%,nt,
CCCc1cc(=O)oc2cc(OCC(=O)NCCCN3CCCC3=O)ccc12,0.1,-1,nt,nt,nt,
Cc1c(CN2CCCCC2)c(O)n(CCCO)c(=O)c1C#N,0.3,-2,16,-4%,-30,
COc1cc(CNC(C)(C)CO)ccc1OCC(=O)NC(C)(C)C,3.2,0,5,-4%,-19,
COc1ccc(C2=CSC(/N=C/c3ccc(F)cc3)=NN2)cc1,0.9,-8,1,-2%,-8,
O=C1[C@@H]2[C@@H]3C[C@@H]([C@H]4ON=C(c5ccc(OCc6ccccc6)cc5)[C@@H]34)[C@@H]2C(=O)N1c1ccc2c(c1)OCO2,1.2,47,-7,0%,-20,
Cn1c(SCC(=O)N2CCN(S(=O)(=O)c3ccc(Cl)cc3)CC2)nc2ccccc21,2.7,7,5,-3%,-5,
O=C(OCC(=O)N(C1CCCCC1)C1CCCCC1)c1ccncc1,0.6,-4,0,nt,10,
Cc1ccc(OCCCC(=O)N2CCN(S(=O)(=O)c3cccc(F)c3)CC2)cc1,-2.5,-5,nt,nt,nt,
Cc1ccc(C(c2nnnn2Cc2ccccc2)N2CCN(Cc3ccccc3)CC2)cc1 (stereo not given),6.8,9,8,9%,-18,
O=C(O)c1ccc(Cl)nc1,-1.6,-3,-10,2%,-10,
CC(=O)Nc1ccc(NC(=O)c2cccc(-c3cc4ccccc4oc3=O)c2)cc1,-3.5,1,4,-4%,nt,
Cc1ccc2cc(CN(CCCN3CCOCC3)C(c3nnnn3Cc3ccco3)C(C)C)c(=O)[nH]c2c1C (stereo not given),2.7,4,nt,3%,-10,
CC1CC(NNC(=O)c2ccccc2)=Nc2ccccc2N1C (stereo not given),7.9,-9,0,-7%,-26,
CC(Oc1ccc(C(=O)NC2CCCCC2)cc1)C(=O)O (stereo not given),-0.6,-12,6,-10%,-25,
COc1ccc(N2CCN(C(=O)[C@H](Cc3c[nH]c4ccccc34)NC(C)=O)CC2)cc1,0.4,-5,6,6%,nt,
Cc1cc(-c2csc(N)n2)c(C)n1C,9.6,-14,2,-13%,-25,
Cc1ccc(CN2CCN(CC(=O)NC(C)CCc3ccccc3)C2=O)cc1 (stereo not given),2.9,-2,-4,7%,-18,
Cc1ccc(S(=O)(=O)Nc2c(C)nc3nc[nH]n3c2=O)c(C)c1,-4.8,-3,-5,2%,nt,
COC(=O)c1ccc(CSc2cc(C)c3cccc(C)c3n2)o1,-2.4,-1,11,0%,nt,
O=C(CSCc1n[nH]c(=O)[nH]1)NCCOc1cccc(Oc2ccccc2)c1,0.7,-8,2,-3%,1,
Cc1nn(CC(=O)N2CCC(C(N)=O)CC2)c(=O)c2nn(-c3ccccc3)c(C)c12,-2.8,0,nt,nt,nt,
O=C(O)c1ccc2c(c1)C(=O)N(c1ccc(Nc3ccccc3)cc1)C2=O,-2.8,5,nt,nt,nt,
CC(C)Cc1nnc(NC(=O)CC(=O)Nc2ccccc2C(=O)O)s1,0.9,-4,-3,5%,-22,
O=C(NC(Cc1ccccc1)C(=O)O)/C(=C\c1ccco1)NC(=O)c1ccccc1Br (stereo not given),-2.2,-1,-15,31%,-25,
CC1(c2ccccc2)NC(=O)N(CC(=O)Nc2ccccc2N2CCCCC2)C1=O (stereo not given),4.5,0,nt,nt,nt,
Cc1noc(C)c1S(=O)(=O)N(CC(=O)NC1CCC(C)CC1)c1ccc(C(C)C)cc1 (stereo not given),0.2,-8,nt,nt,nt,
CCOC(=O)c1cc(-c2ccccc2)sc1NC(=O)CSc1nnnn1C,-0.3,-2,6,-1%,-38,
COc1ccc(C(=O)NCCC(=O)NCc2cc(=O)n(C)c(=O)n2C)cc1,2.5,0,nt,nt,nt,
CCC(=O)NN1CCc2cc3ccc(C)cc3nc21,-0.5,-2,nt,nt,nt,
CN(C(=O)c1cccc(Cl)c1)C1CCCN(Cc2ccccc2F)C1 (stereo not given),0.1,-3,nt,nt,nt,
CC(=O)NC(CC(=O)OC(C)C(=O)Nc1ccc(Cl)cn1)c1ccccc1 (stereo not given),-5.4,-9,nt,nt,nt,
O=C1c2ccccc2C(O)N1Cc1ccccc1Cl (stereo not given),-3.2,2,1,-2%,-7,Arbovirus anti repeat=0
CS(=O)(=O)N1CCCC(c2nc(-c3ccc(S(=O)(=O)NCc4ccccc4)cc3)no2)C1 (stereo not given),1.6,-2,10,2%,-33,
Cc1cnc(=O)[nH]c1SCc1cccc([N+](=O)[O-])c1,-1.5,2,nt,nt,nt,
Cc1ccc(Cn2c(Sc3ncccn3)nc3c2c(=O)[nH]c(=O)n3C)cc1,-3.6,-6,1,-7%,-10,
O=C(/C=C/c1ccc([N+](=O)[O-])cc1)NCc1cccs1,-1.3,3,1,-7%,-18,
Cc1ccc(S(=O)(=O)Cn2nnnc2C(CC(C)C)N2CCN(C)CC2)cc1 (stereo not given),-1.0,-1,-6,3%,nt,
COc1ccccc1N1CCN(CCC(=O)Nc2ccc(F)cc2)CC1,0.8,5,nt,nt,nt,
CCN(CC)c1ccc(/C=C(/C#N)C(=O)NC(C)C)o1,-9.2,-1,-4,-5%,nt,
COc1cccc(NC(=S)N2c3ccccc3CC2C)c1 (stereo not given),2.5,-6,nt,nt,nt,
Cc1cccc2cc(CN(Cc3cccs3)S(=O)(=O)c3ccc4c(c3)OCCO4)c(=O)[nH]c12,0.3,-1,-12,4%,-13,
Cc1cccc(-n2c(O)c(C=NC34CN5CN(CN(C5)C3)C4)c(=O)[nH]c2=O)c1,-0.3,0,1,-8%,nt,
O=C(/C=C/c1ccc2c(c1)OCO2)c1ccco1,-4.4,12,14,10%,-9,
CC(=O)Nc1ccc(C(=O)N2CCCC2)cc1,1.1,8,1,-10%,-11,
Cc1cc(C)n2nc(SC(C)C(=O)Nc3ccc(Cl)cn3)nc2n1 (stereo not given),0.3,-16,15,-14%,nt,
CC(NC(c1ccccc1)c1ccccc1)C(=O)N1CCCc2ccccc21 (stereo not given),1.6,2,-1,-4%,-21,
C=CCN1C(=O)C(CC(=O)Nc2ccc(OC)cc2)N(Cc2ccco2)C1=S (stereo not given),1.7,4,8,-7%,-2,
COc1ccc(CNC(=O)CCCC(=O)n2nc(C)c3ccccc32)cc1,0.2,-2,nt,nt,nt,
CC(=O)Nc1ccc(S(=O)(=O)N2CCC(C(=O)NCCc3ccc(Cl)cc3)CC2)cc1,-2.6,2,nt,nt,nt,
Cc1cccc(N2C(=O)C(Oc3ccc(Cl)cc3Cl)C2C=O)c1C (stereo not given),nt,0,-20,8%,-37,
Nc1nc(CN2CCN(c3ccccc3F)CC2)nc(N2CCCc3ccccc32)n1,4.7,91,9,?,nt,
CC(C)(C)c1ccc(C(O)CCCN2CCC(C(O)(c3ccccc3)c3ccccc3)CC2)cc1 (stereo not given),4.1,100,-44,?,-28,
O=C(O)c1cccc(NC(=O)c2cc(S(=O)(=O)N3CCOCC3)cs2)c1,-5.1,-4,-4,-6%,nt,
CCCCn1c(N)c(N(CCOC)C(=O)C2CC(=O)N(Cc3ccc(C)cc3)C2)c(=O)[nH]c1=O (stereo not given),-1.7,-20,nt,nt,nt,
COC(=O)c1ccc(-n2c(C)nc3ccccc3c2=O)cc1,2.9,-3,10,3%,-15,
Cc1cc(C(=O)NC(C)Cc2ccccc2)cc(C)c1[N+](=O)[O-] (stereo not given),-0.8,-14,-2,3%,nt,
CCOC(=O)c1sc(NC(=S)NC(=O)c2cccc(OC)c2)nc1C,-2.1,0,nt,nt,nt,
CCC(C)c1ccc(NC(=O)NCc2cccnc2)cc1 (stereo not given),2.8,1,nt,nt,nt,
# Later entries.
SMILES,RecA intein inh,Mtb bLac sens,Arbovirus anti,Mtb growth,YopH inh,others
Cc1cc(Cl)c2oc(C(=O)N3CCN(C(=O)c4ccco4)CC3)c(C)c2c1,1.4,95,nt,nt,nt,
CCn1cc(C(=O)OCC(=O)Nc2c(C)n(C)n(-c3ccccc3)c2=O)c(=O)c2ccc(C)nc21,-1.2,0,-3,-15%,-21,Arbovirus anti repeat=-2
CCC1CCCCN1CCCNC(=O)CCCNC(=O)Cn1cnc2sc3c(c2c1=O)CCCC3 (stereo not given),-1.3,3,5,5%,nt,
CC(OC(=O)/C=C/c1ccc2ccccc2n1)C(=O)Nc1ccc(S(N)(=O)=O)cc1 (stereo not given),2.2,9,nt,nt,nt,
Cc1ccc(C(=O)Nc2nnc(-c3ccco3)o2)cc1C,0.2,85,-11,<0.2µM*,-16,
O=C(CSc1nc2ccccc2c(=O)n1-c1ccccc1)NCC1CCCO1 (stereo not given),4.7,2,nt,nt,nt,
O=S(=O)(NCc1ccco1)c1cccc2cccnc12,2.2,11,14,4%,-7,
Cc1cccc(NC(=O)c2ccc3nccnc3c2)c1C,2.0,2,nt,nt,nt,
CCCC(C)n1[nH]c(=O)c2c1NC(=O)CSC2c1ccc(OC)cc1 (stereo not given),-1.0,-2,7,-1%,-22,
COC(=O)c1cnc(SCc2ccc(Cl)cc2)n1C,2.5,8,4,17%,nt,
CCCc1cc(=O)[nH]c(SCC(=O)C(C)(C)C)n1,-3.1,5,1,-7%,-28,
O=C(CN1CCN(S(=O)(=O)c2ccc(F)cc2)CC1)Nc1ccc(Cl)cn1,0.7,7,nt,nt,nt,
Cc1c(NC2(C#N)CCCC2)c(=O)n(-c2ccccc2)n1C,-3.6,0,-1,-6%,nt,
CCC(C(=O)NN1C(=O)c2ccccc2C1=O)c1ccccc1 (stereo not given),1.4,-2,10,1%,nt,
O=[N+]([O-])c1cc([N+](=O)[O-])c(Oc2cc(F)ccc2F)cc1NN1CCCCC1,2.6,-1,nt,nt,nt,
Cc1c(C)n(Cc2ccccc2)c2ccc(C(=O)NCCCN3CCOCC3)cc12,3.6,2,nt,nt,nt,
Cc1[nH]n(-c2ccccc2)c(=O)c1C=NCC1CCCO1 (stereo not given),0.1,-2,3,-4%,nt,
Cc1ccc(-c2nc(CS(=O)(=O)CC(=O)N3CCCCCC3)c(C)o2)cc1,-1.2,-1,-3,-3%,-27,Arbovirus anti repeat=5
C=C(C)CNC(=S)NNC(=O)CCn1c2ccc(Cl)cc2c2cc(Cl)ccc21,7.6,80,-40,78%,-14,
COc1cccc(Nc2ccc(-n3ccnc3)nn2)c1,-1.3,-7,4,-3%,nt,
COc1cccc2cc(C(=O)NCCc3ccccc3)c(=O)oc12,2.9,-7,nt,nt,nt,
Cc1ccccc1NC(=O)CN1C(=O)NC2(CCCCC2)C1=O,-0.5,-10,7,-6%,4,
COC(=O)c1c(C)oc2ccc(NS(=O)(=O)c3cc(OC)ccc3OC)cc12,-2.3,-11,-2,-1%,-31,
COc1ccc(N=C2C(=O)N3c4c(cccc42)C(C)=CC3(C)C)cc1,1.8,90,-10,>100µM*,-17,
CCOc1ccc(N2CC(C(=O)Nc3nnc(CC)s3)CC2=O)cc1 (stereo not given),-1.1,1,nt,nt,nt,
Cc1ccc(CCNC(=O)C2CC(c3cc(C(F)(F)F)cc(C(F)(F)F)c3)=NO2)cc1 (stereo not given),1.4,-6,nt,-1%,nt,
COc1ccc2cc(C(=O)C3CCCN(Cc4cnc(N5CCOCC5)s4)C3)ccc2c1 (stereo not given),1.1,79,2,0%,nt,
C[n+]1ccc(/C=C/c2ccc(Br)cc2)cc1,0.5,-1,-8,nt,-14,
CSc1nsc(SCC(=O)Nc2ccccc2F)n1,2.6,98,nt,nt,nt,
CCOC(=O)c1c(NC(=O)C2COc3ccccc3O2)sc2c1CC(C)(C)NC2(C)C (stereo not given),2.0,98,-27,13µM*,-29,
CC1CCN(CCOc2cccc(Br)c2)CC1,1.0,2,-9,6%,-3,
CC(NC(=O)COC(=O)CSCc1ccccc1)c1ccccc1 (stereo not given),-0.8,23,2,5%,nt,

# Quoted at random: five entries already listed.
SMILES,RecA intein inh,Mtb bLac sens,Arbovirus anti,Mtb growth,YopH inh,others
Cc1noc(C)c1S(=O)(=O)N(CC(=O)NC1CCC(C)CC1)c1ccc(C(C)C)cc1 (stereo not given),0.2,-8,nt,nt,nt,
O=C(CSc1nc2ccccc2c(=O)n1-c1ccccc1)NCC1CCCO1 (stereo not given),4.7,2,nt,nt,nt,
COc1cc(CNC(C)(C)CO)ccc1OCC(=O)NC(C)(C)C,3.2,0,5,-4%,-19,
CC1CCN(CCOc2cccc(Br)c2)CC1,1.0,2,-9,6%,-3,
CCOC(=O)c1cc(-c2ccccc2)sc1NC(=O)CSc1nnnn1C,-0.3,-2,6,-1%,-38,

# This is a subset; the hit share may differ from the screen's.
